Screens as filed in PubChem.
Mtb growth – Confirmatory growth inhibition assay against Mycobacterium tuberculosis H37Rv, potency (AID 1949). most inactive calls were filed without a number and no value below 0 was filed. one-dose inhibition, % at 10 µg/mL; IC50 in µg/mL for titrated hits. 1.6% of 100,000 active;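 active means confirmed in a dose series; inconclusive means about 50% or more but not retested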;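 further: bacteria grown 7 days with compound before Alamar blue readout; 0% = untreated bacteria and 100% = reference antibiotic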
* hit, by the source's call. Some of the compounds tested, so the mix of outcomes need not match the whole.

Screening COc1ccc(Nc2nc(C)cc(C)c2C(N)=O)cc1OC returned Mtb growth inactive.
`COc1ccc(CNC(=O)c2ccccc2C(=O)NCc2ccc(OC)cc2)cc1` gave Mtb growth inactive.
CCc1cccc(CC)c1NC(=O)c1ccccc1Oc1ccccc1 was read as Mtb growth 2%.
`Cc1c(C=O)c2ccccc2n1CC(=O)NCCc1ccccc1` gave Mtb growth inactive.
For Cc1ccc(Cn2ncc3c(N4CCCC4)ncnc32)cc1 the results were Mtb growth inconclusive.
Screening COc1ccccc1C(=O)n1nc(-c2ccco2)nc1N returned Mtb growth inactive.
Screening CCOc1ccc(S(=O)(=O)Nc2ccccc2C(F)(F)F)cc1 returned Mtb growth 4%.
For CC1=C(C(=O)OC2CCCCC2)C(c2cccc(O)c2)NC(=O)N1 (stereo unspecified) the results were Mtb growth inactive.
For CC(=O)Nc1nc2c(c3c1c(=O)oc1ccccc13)CCCCC2 the results were Mtb growth inactive.
Screening CCOc1ccccc1Oc1c(C(F)(F)F)oc2cc(OCC(=O)O)ccc2c1=O returned Mtb growth inactive.

Fetched by structure from above, three records:
Screening COc1ccccc1C(=O)n1nc(-c2ccco2)nc1N returned Mtb growth inactive.
For CC(=O)Nc1nc2c(c3c1c(=O)oc1ccccc13)CCCCC2 the results were Mtb growth inactive.
Screening COc1ccc(Nc2nc(C)cc(C)c2C(N)=O)cc1OC returned Mtb growth inactive.

(further entries)
Screening NS(=O)(=O)c1ccc2c(c1)Cc1ccccc1-2 returned Mtb growth inactive.
Screening CCc1cccc(CC)c1NC(=O)COc1ccc2ccccc2c1 returned Mtb growth inactive.
For CN1CCN(C(=O)c2cnn3c2NC(c2ccccc2)CC3C(F)(F)F)CC1 (stereo unspecified) the results were Mtb growth 2%.
For CCSc1nc2ccccc2n1CC(N)=O the results were Mtb growth inactive.
For COc1ccc(OC)c(NC(=O)CN(c2ccccc2Cl)S(C)(=O)=O)c1 the results were Mtb growth inactive.
Screening COC(=O)c1ccccc1NC(=O)C1CCN(S(=O)(=O)c2ccc(F)cc2)CC1 returned Mtb growth inactive.
For CCCOc1ccc(-c2csc(NC(=O)c3cccs3)n2)cc1 the results were Mtb growth 3%.
COc1ccc(C2CC(=O)c3cnc(N)nc3C2)cc1OC (stereo unspecified) was read as Mtb growth inactive.
`O=C(Cc1cccs1)N1CCC2(CC1)OCCO2` gave Mtb growth 4%.
For O=C(NC1CCCCCC1)c1cc2ccccc2oc1=O the results were Mtb growth inactive.
For O=C(Nc1cccnc1)c1ccc(Br)c(S(=O)(=O)N2CCCC2)c1 the results were Mtb growth inactive.
For COc1ccc(CCNC(=S)N2CCN(S(=O)(=O)c3ccc(Cl)cc3)CC2)cc1OC the results were Mtb growth inactive.
CCC(C)NC(=O)c1ccccc1NC(=O)CN(c1ccc(Cl)c(Cl)c1)S(C)(=O)=O (stereo unspecified) was read as Mtb growth inactive.
COc1ccccc1C(=O)Nc1ccc(Br)c(C)n1 was read as Mtb growth 1%.
For CCN1CCN(S(=O)(=O)c2ccc(OC)c(Br)c2)CC1 the results were Mtb growth inactive.
`COc1ccc(CNCCc2c[nH]c3ccccc23)cc1` gave Mtb growth inactive.
`N#Cc1c(Nc2ccc(F)cc2)sc2c(O)cc(=O)[nH]c12` gave Mtb growth 0%.
`CN(Cc1ccccc1)S(=O)(=O)c1ccc(NC(=O)Nc2ccccc2)cc1` gave Mtb growth 7%.
For NS(=O)(=O)c1ccc(NC(=S)NCCC(c2ccccc2)c2ccccc2)cc1 the results were Mtb growth inactive.
For Cn1nc([N+](=O)[O-])nc1Oc1ccc2ccccc2c1 the results were Mtb growth inactive.
Screening Clc1ccc(OCc2nc3ccccc3n2CC2CC2(Cl)Cl)cc1 (stereo unspecified) returned Mtb growth inactive.
For CCCS(=O)(=O)N1CCN(C(=O)COc2ccc(C)cc2)CC1 the results were Mtb growth 1%.
CCc1c(C)sc(NC(=S)Nc2ccc(Br)cn2)c1C(=O)OC was read as Mtb growth inactive.
O=C(Nc1cccc(Br)c1)C1CCCC1 was read as Mtb growth inactive.
O=C(Nc1ccc([N+](=O)[O-])cc1)NN1CCOCC1 was read as Mtb growth inactive.
For Cc1cc(C)c(S(=O)(=O)Nc2ccc(S(=O)(=O)Nc3ccccc3Cl)cc2)c(C)c1 the results were Mtb growth inactive.
COc1cccc(C(=O)Nc2ccccc2C(=O)NC2CCCCC2)c1 was read as Mtb growth inactive.
CCOC(=O)c1c(NC(=S)NCc2ccccc2)sc2c1CC(C(C)C)OC2 (stereo unspecified) was read as Mtb growth inactive.
Screening CC(O)CN(Cc1ccccc1Br)CC(C)O (stereo unspecified) returned Mtb growth inactive.
COC(=O)c1ccc(NS(=O)(=O)c2ccc(Cl)s2)cc1 was read as Mtb growth inactive.
For CN(C)c1ccc(CNn2cnnc2SCC(=O)NC(C)(C)C)cc1 the results were Mtb growth inactive.
For O=c1[nH]c2ccc(Cl)cc2c(-c2ccccc2)c1Sc1nc2ccccc2[nH]1 the results were Mtb growth 28%.
`O=C(NCc1ccco1)Oc1ccccc1` gave Mtb growth 4%.
Screening CC(C)OC(=O)c1oc2c(O)c(O)ccc2c(=O)c1-c1cnn(-c2ccccc2)c1 returned Mtb growth inactive.
Screening CCOC(=O)c1sc(NC(=O)COC)nc1C returned Mtb growth inactive.
COC(=O)CN1C(=O)C2C3C=CC(C4CC34)C2C1=O (stereo unspecified) was read as Mtb growth inactive.
`COc1ccc(C(=O)CSC#N)cc1OC` gave Mtb growth inactive.
`O=S(=O)(Nc1cc(C(F)(F)F)ccc1Cl)c1c(Cl)cccc1Cl` gave Mtb growth inactive.
For O=C(CSc1nc2ccccc2o1)Nc1ncc(Cc2ccc(Cl)cc2Cl)s1 the results were Mtb growth inactive.
For O=C(Nc1nccs1)c1cc(-c2ccccc2)nc2ccccc12 the results were Mtb growth inconclusive.

For reference, 4 of the compounds above:
`O=C(NCc1ccco1)Oc1ccccc1` gave Mtb growth 4%.
Screening CC(C)OC(=O)c1oc2c(O)c(O)ccc2c(=O)c1-c1cnn(-c2ccccc2)c1 returned Mtb growth inactive.
Screening CCOC(=O)c1sc(NC(=O)COC)nc1C returned Mtb growth inactive.
COC(=O)CN1C(=O)C2C3C=CC(C4CC34)C2C1=O (stereo unspecified) was read as Mtb growth inactive.

The listing picks up, starting 3 compounds before the break.
`O=S(=O)(Nc1cc(C(F)(F)F)ccc1Cl)c1c(Cl)cccc1Cl` gave Mtb growth inactive.
For O=C(CSc1nc2ccccc2o1)Nc1ncc(Cc2ccc(Cl)cc2Cl)s1 the results were Mtb growth inactive.
For O=C(Nc1nccs1)c1cc(-c2ccccc2)nc2ccccc12 the results were Mtb growth inconclusive.
For CCc1ccccc1-n1c(-c2ccncc2)n[nH]c1=S the results were Mtb growth inactive.
`CCN1CCN(C(=S)Nc2ccc(OC)cc2)CC1` gave Mtb growth inactive.
O=C(Nc1ccc(OCc2ccccc2)cc1)c1cc2cc(Cl)cc(Cl)c2oc1=O was read as Mtb growth inactive.
Screening CCCCNCCOCCOc1ccccc1C returned Mtb growth 0%.
Cc1ccc(C)c(N(Cc2c(F)cccc2Cl)S(C)(=O)=O)c1 was read as Mtb growth inactive.
For CC(Sc1ccc(Cl)cc1)C(=O)O (stereo unspecified) the results were Mtb growth 1%.
Screening Cn1nnnc1SCc1ccc(Cl)c(Cl)c1 returned Mtb growth inactive.
Screening Cc1ccc(NC(=O)COc2ccc(C(=S)N3CCCC3)cc2)cc1Cl returned Mtb growth inactive.
For Cc1cccc(C)c1NC(=O)CN1C(=O)c2cccc3cccc1c23 the results were Mtb growth 1%.
For O=C(NCCc1ccccc1Cl)C1CC(=O)N(C2CCCCC2)C1 (stereo unspecified) the results were Mtb growth inactive.

Grouped by structure: those above with four or more nitrogen atoms (eight)
For Cc1ccc(Cn2ncc3c(N4CCCC4)ncnc32)cc1 the results were Mtb growth inconclusive.
Screening COc1ccccc1C(=O)n1nc(-c2ccco2)nc1N returned Mtb growth inactive.
For CN1CCN(C(=O)c2cnn3c2NC(c2ccccc2)CC3C(F)(F)F)CC1 (stereo unspecified) the results were Mtb growth 2%.
For Cn1nc([N+](=O)[O-])nc1Oc1ccc2ccccc2c1 the results were Mtb growth inactive.
O=C(Nc1ccc([N+](=O)[O-])cc1)NN1CCOCC1 was read as Mtb growth inactive.
For CN(C)c1ccc(CNn2cnnc2SCC(=O)NC(C)(C)C)cc1 the results were Mtb growth inactive.
For CCc1ccccc1-n1c(-c2ccncc2)n[nH]c1=S the results were Mtb growth inactive.
Screening Cn1nnnc1SCc1ccc(Cl)c(Cl)c1 returned Mtb growth inactive.

Additional compounds:
O=C(CCc1ccccc1)NCc1ccc(Cl)cc1Cl was read as Mtb growth inactive.
Screening Cc1ccc(NS(=O)(=O)c2ccc(NC(=O)c3ccco3)cc2)c(C)c1 returned Mtb growth inactive.
Cc1ccccc1NC(=O)c1ccccc1NC(=S)NC(=O)c1cccnc1 was read as Mtb growth 1.3µg/mL*.
`Cc1c(C(=O)Nc2cnccn2)oc2ccccc12` gave Mtb growth inactive.
For O=C(NC(=S)Nc1ccccc1N1CCOCC1)c1ccccc1F the results were Mtb growth inactive.
Screening CCCCOc1ccc(C(=O)NC(Cc2ccc(O)cc2)C(=O)OC)cc1 (stereo unspecified) returned Mtb growth inactive.
For CCS(=O)(=O)NC1CCCCCCC1 the results were Mtb growth inactive.
Screening COC(=O)C1=CNC=C(C(=O)OC)C1c1cccc(O)c1 returned Mtb growth inactive.
For N#Cc1nc(COc2cccc(Cl)c2)oc1NCCCn1ccnc1 the results were Mtb growth inactive.
Cc1ccccc1OCc1nnc(SCC(=O)N2CCN(C(c3ccccc3)c3ccccc3)CC2)n1C was read as Mtb growth 33%.
Screening CCN(CC)C(=O)CSc1nnnn1-c1cccc2ccccc12 returned Mtb growth inactive.
O=c1c2c([nH]c3ccccc13)CCCCCC2 was read as Mtb growth inactive.
For CC(=O)Nc1cccc(NC(=O)c2csc3ccccc23)c1 the results were Mtb growth 4%.
Screening Cc1cc(CN2CCOCC2)c(O)c(C2(C)CCCCC2)c1 returned Mtb growth 7%.
CCc1sc(NC(=O)C(C)C)nc1-c1ccccc1 was read as Mtb growth 3%.
`CCC(C)c1ccc(NC(=O)CSc2nc3ncccc3[nH]2)cc1` (stereo unspecified) gave Mtb growth inactive.
CC1(C)CC2(CCCN(Cc3nc4c(c(=O)[nH]3)C3(CCCCC3)Cc3ccccc3-4)C2)CCO1 (stereo unspecified) was read as Mtb growth 0%.
Screening COc1cc(C=O)ccc1OCC(=O)Nc1ccc(Br)c(C)c1C returned Mtb growth inactive.
Clc1ccc(OCCNCc2ccccc2)c(Br)c1 was read as Mtb growth 32%.
COc1ccc(N2CCN(C(=O)CNS(=O)(=O)c3ccccc3)CC2)cc1 was read as Mtb growth inactive.
`Cc1ccc(S(=O)(=O)Nc2ccc3c(c2)ncn3C2CCCCC2)cc1` gave Mtb growth inactive.
`CC(=O)Oc1ccc(NC(=O)COc2cccc(C)c2C)c(C(=O)O)c1` gave Mtb growth 1%.
Screening O=C(c1cccc(Br)c1)N1CCN(C(=O)N2CCOCC2)CC1 returned Mtb growth 3%.
COCCN1C(=O)C(O)=C(C(=O)c2cccs2)C1c1ccccc1F (stereo unspecified) was read as Mtb growth inactive.
Screening O=C1CC(N2CCN(CCO)CC2)C(=O)N1c1ccc(I)cc1 (stereo unspecified) returned Mtb growth inactive.
Screening CCOc1ccc(NC(=O)CSc2nnc(-c3ccccc3)n2CC)cc1 returned Mtb growth 1%.
`CC(=O)N(c1ccc(Cl)cc1)c1c[nH]c2ccccc12` gave Mtb growth 4%.
Screening CC(NC(=O)C(C)(c1ccccc1)c1ccccc1)c1ccccc1 (stereo unspecified) returned Mtb growth 16%.
`NC(=O)c1ccccc1NC(=O)CC12CC3CC(CC(C3)C1)C2` gave Mtb growth inactive.
Screening COc1cccc(OC)c1C(=O)Nc1cccc(NC(=O)c2cccs2)c1 returned Mtb growth inactive.
For CCOC(=O)c1sc(NNC(=O)C(CC)c2ccccc2)nc1C (stereo unspecified) the results were Mtb growth inactive.
`Cc1ccc(N(CC(=O)Nc2ccc(Br)cc2F)S(=O)(=O)c2ccccc2)cc1C` gave Mtb growth 11%.
`CN(CC(=O)NC1CC1)S(=O)(=O)c1ccc(F)cc1` gave Mtb growth inactive.
Screening CCC(C)NC(=O)c1ccccc1NS(=O)(=O)c1ccc(Cl)cc1 (stereo unspecified) returned Mtb growth inactive.
COc1cc(-c2ccc(NS(C)(=O)=O)c(OC)c2)ccc1NS(C)(=O)=O was read as Mtb growth inactive.
`COC(=O)c1c(-c2cccc(C)c2)csc1NC(C)=O` gave Mtb growth inactive.
For COc1ccc(/C=C/c2nc(-c3ccc(C)cc3)no2)cc1OC the results were Mtb growth inactive.
`CCCNC(=O)C(=O)NCc1ccccc1OC` gave Mtb growth inactive.
Screening CC(O)CNc1ccc(C(F)(F)F)cn1 (stereo unspecified) returned Mtb growth inactive.
Screening O=C(Nc1nc(-c2ccc(Cl)cc2Cl)cs1)c1ccc([N+](=O)[O-])cc1 returned Mtb growth 5%.
`CCc1cc(OCCCCNC(C)CC)ccc1Cl` (stereo unspecified) gave Mtb growth 28%.
CCOc1cc(C=O)ccc1OCCCCN1CCOCC1 was read as Mtb growth 1%.
`CCCc1cc2c(-c3ccccc3)cc(=O)oc2cc1OCC` gave Mtb growth inactive.
For Cc1c(C(=O)NCc2ccccc2)cccc1[N+](=O)[O-] the results were Mtb growth 2%.
Cn1c(SCC(=O)Nc2ccc3c(c2)oc2ccccc23)nc2ccccc2c1=O was read as Mtb growth inactive.
For Fc1ccccc1N1CCN(C2CCN(Cc3ccncc3)CC2)CC1 the results were Mtb growth inactive.
`Cc1c(Cl)cccc1NC(=O)c1ccc(OCC(=O)N2CCCCC2)cc1` gave Mtb growth inactive.
CC1CN(c2oc(-c3cccc(Cl)c3)nc2C#N)CC(C)O1 (stereo unspecified) was read as Mtb growth inactive.
